Tgondii IFNg – inhibitors of Toxoplasma gondii growth with IFN-gamma; Toxoplasma gondii growth in IFN-gamma-treated host cells; active compounds read low; reference of the scale not given here; activity change, negative = inhibition, %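 (about 20 µM by stock and volumes)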; hit rate 3.8% among 69,000;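 active means below -70%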;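 further: host cells are HeLa cells infected with Toxoplasma gondii; parasite growth read as luciferase light; one replicate is shown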
An asterisk follows results filed as active; i = inactive; & = joins results of further samples. The list is partial; count on the stated rates, not on these rows.

canonical_smiles	Tgondii IFNg
O=c1[nH]c(=S)n(-c2ccccc2)c(O)c1/C=N/N1CCCCC1c1cccnc1 (stereo not drawn)	10.3
COc1cccc(-c2ccc([C@H]3[C@@H](CO)N4CCCCN(C(=O)Cc5ccncc5)C[C@@H]34)cc2)c1	-0.4
Cc1cc(N2CCC3(CC2)CC(C(=O)O)N(C)C3)nc(N)n1 (stereo not drawn)	1.4
C=CCN1C[C@H]2CN(C(C)C)C[C@H]2C1=O	-31.6
CN(C)C(=O)Oc1ccc2nnc3ccnn3c2c1	56.0
CCc1cc2c(cc1-c1csc(-c3snnc3C)n1)C(C)(C)CCC2(C)C	-14.7
C=CCN1CCCC12CCCN(C(=O)Cc1ccsc1)C2 (stereo not drawn)	312.3
CC12CCC3C(CC=C4CC(O)CCC43C)C1C/C(=C\c1cccc(F)c1)C2=O (stereo not drawn)	4.6
Cc1nc(C)n(CCCNC(C)Cc2ccccc2F)n1 (stereo not drawn)	-5.1
CN1C2CCN(c3ncc(F)cn3)CC2C[C@H]1Cn1cncn1 (stereo partly drawn)	7.8
COC(=O)c1cc(N2C[C@@H](c3ccc(OC)cc3)[C@@H]3[C@H]2C2CCN3CC2)ncn1	-37.6
COCCN1CCN(Cc2cnn(C)c2)Cc2cccnc21	63.4
c1cc(-c2cccc3c2CCNC3)cc(-n2cnnc2)c1	-1.6
COC(=O)[C@@H]1[C@@H](CO)[C@@H]2Cn3c(ccc(-c4cccc(C(=O)N(C)C)c4)c3=O)[C@H]1N2C(=O)NC(C)C	6.1
CCCc1cnc(C)nc1N1C[C@H]2CC[C@@H](C1)N2	-43.5
Cn1cccc1CN1CC2(CCN(C(=O)c3cccnc3)C2)C1	-2.6
Cc1ccc(CN2CC3C[C@@H](O)CN3C[C@H]2C)o1 (stereo partly drawn)	44.0
c1ccc(CCNCc2cccs2)cc1	-11.2
CCN1C[C@H]2COC[C@H](CC(=O)NCCc3ccccn3)[C@H]2C1	2.5
COCC1CCC2(CCN(c3ncccn3)CC2)N1CC1CC1 (stereo not drawn)	38.6
Cn1nccc1CN1CC[C@@H]2OCCN(Cc3cccnc3)[C@@H]2C1	79.9
C[C@]12CC[C@@H]3c4ccc(O)c(O)c4CC[C@H]3[C@@H]1CC[C@@H]2O	35.5
O=C(Cc1ccc(Cl)cc1)N1CCCC2(CCCN2Cc2ccc(C(F)(F)F)cc2)C1 (stereo not drawn)	2.6
C=CCN1C(=O)CCC2C1CCN2Cc1ccccn1 (stereo not drawn)	3.4
O=C(Cc1ccc(Cl)c(Cl)c1)N1CCCCC1CN1CCCC1 (stereo not drawn)	14.7&3.5
Fc1cnc(N2CCN(CC3CC3)c3ncccc3C2)nc1	i
CN1CCc2cc(O)cc3c2[C@H]1Cc1ccc(O)c(O)c1-3	-5.6
CN1CCN2CCN(Cc3ncc[nH]3)CC2C1=O (stereo not drawn)	-1.7
COCCNC(=O)C[C@@H]1C[C@@H]2CN(Cc3ccncc3)C[C@H]2O1	-43.0
CN(C)C1CC2(CCN(Cc3ccnn3C)C2)C1 (stereo not drawn)	109.2
CNC(=O)CN1CC[C@@H]2CN(CC3CC3)C[C@@H]2C1	20.9
CC(C)[C@H]1CN(Cc2ccccc2F)CCN1C(=O)Cc1ccc(S(C)(=O)=O)cc1	-54.3
Nc1c2c(nc3sc4c(c13)CCCC4)CCCC2	-65.5
CN1CCc2cc3c(cc2C1[C@@H]1OC(=O)c2c1ccc1c2OCO1)OCO3 (stereo partly drawn)	35.2
CN1CC(CNC(=O)OCc2ccccc2)CC2c3cccc4c3c(cn4C)CC21 (stereo not drawn)	4.6&-6.7
CCOC(=O)N1c2ccccc2[C@@H]2CNCC[C@@H]21	15.3
COC(=O)C(c1ccccc1)C1CCCCN1 (stereo not drawn)	9.4&21.9
Cc1cccc(-c2ncc(CN3C[C@H]4CC[C@H]3C4)cn2)c1	9.4
C/C(=C/C=C/[C@@H](C)C(=O)O)[C@H]1CN[C@H](C(=O)O)[C@H]1CC(=O)O	20.8
Cn1c(COP(=O)(NCCBr)NCCBr)cnc1[N+](=O)[O-]	-62.2
COc1ccc(NC2=NCC(C)S2)cc1 (stereo not drawn)	25.0
CCCCCCN1CCN(c2cccc(Cl)c2)CC1	11.1
CCCN(CCC)[C@@H]1CCc2c(OC)cccc2[C@@H]1C	20.4&6.5
CC(C)OCCCNC(=O)c1cc2cccnc2n(Cc2ccccc2)c1=O	9.1
CN(C)c1ccc(/C=C/C(=O)C2C(=O)N(C)C3(C)CC2c2cc(Cl)ccc2O3)cc1 (stereo not drawn)	21.2
Cc1nn(CCNC(C)Cn2ccnc2)c(C)c1Cl (stereo not drawn)	-2.7
CN1CC[C@H]2[C@@H]1CCN2S(=O)(=O)c1cccs1	5.1
O=S(=O)(NC1CC2(CCN(Cc3ccccn3)C2)C1)C1CC1 (stereo not drawn)	1.1
O=C(CCC(F)(F)F)N1CCCC2(CCNC2)C1 (stereo not drawn)	-0.7
O=c1cccc2n1CC1CNC[C@H]2C1	15.6&13.9&25.0
Clc1cccc(SC2CCNCC2)n1	24.4
COCCNC(=O)C[C@H]1COC[C@@H]2CN(Cc3cc(C)on3)C[C@@H]12	-28.3
Cc1cc(-c2cnc(N3CC4CC(C3)c3cccc(=O)n3C4)nc2-c2cccs2)on1 (stereo not drawn)	-2.0
CN1CCC2(CC1)CCN(C1CSCCSC1)C2	-7.0
CCN(C(C)=O)c1cccc(-c2ccnc3c(C#N)cnn23)c1	-19.2
Cn1c2c(c3ccccc31)CCNCC2	31.8&17.8
Cc1cccc(NC(=O)c2cc3cccnc3n(Cc3ccc(Cl)cc3)c2=O)c1	12.8
O=C(O)CCCO	26.6
O=C(NCCc1ccccc1)c1cc2cccnc2n(Cc2ccc(Cl)cc2)c1=O	32.2
CCN1C[C@@H]2[C@H](C1)OC[C@@H]2C(=O)Nc1cccnc1	-34.9

Given with each value named: 3 of the compounds above.
> Cc1nn(CCNC(C)Cn2ccnc2)c(C)c1Cl (stereo not drawn)
  Tgondii IFNg: -2.7
> CN1CC[C@H]2[C@@H]1CCN2S(=O)(=O)c1cccs1
  Tgondii IFNg: 5.1
> O=S(=O)(NC1CC2(CCN(Cc3ccccn3)C2)C1)C1CC1 (stereo not drawn)
  Tgondii IFNg: 1.1

(more compounds)
canonical_smiles	Tgondii IFNg
CCCCC/C=C\C/C=C\C/C=C\C/C=C\CCCC(=O)Nc1ccc(O)cc1	17.2
COc1cc(OC)c2c(c1)O[C@H](c1ccc(OC)c(OC)c1)[C@@H](O)C2	1.6
O=C(Cn1ncnn1)N1C[C@@H](c2cccc(F)c2F)[C@@H]2[C@H]1C1CCN2CC1	5.2
COC(=O)C1(Cc2ccccc2)C(=O)CC2CCC1N2Cc1cccc(OC)c1 (stereo not drawn)	30.8
O=c1c2ccccc2nc(CN2CCCCC2)n1-c1ccccc1	-1.3
CCc1ccccc1NC(=O)N1Cc2ccccc2-n2cccc2C12CCN(C(C)=O)CC2	55.6
CC(C)(C)NCC(O)c1ccc(O)cc1Cl (stereo not drawn)	-11.0
Cc1nc(SCC(=O)N2C[C@H]3C[C@@H](C2)c2cccc(=O)n2C3)n[nH]1	-6.2
Cc1cc2ncc3c(n2n1)CC1CCC3N1C(=O)CCc1c(C)noc1C (stereo not drawn)	3.3
O=C1NCN(c2ccccc2)C12CCN(CC1COc3ccccc3O1)CC2 (stereo not drawn)	21.2&-1.9
CC(=O)Nc1ccccc1NC(=O)CNC(C)Cc1ncccc1C (stereo not drawn)	-32.9
C/C=C(\C)C(=O)N[C@@H](c1ccccc1)[C@@H](O)C(=O)O[C@H]1C[C@@]2(O)[C@@H](OC(=O)c3ccccc3)[C@@H]3[C@]4(OC(C)=O)CO[C@@H]4C[C@H](O)[C@@]3(C)C(=O)[C@H](OC(C)=O)C(=C1C)C2(C)C	-89.1*
Cc1ccccc1NC(=O)c1cc(-c2ccccc2)n(CCCN2CCOCC2)c1C	26.8
O=C(Nc1cccc(Br)c1)c1cc2cccnc2n(Cc2ccc(F)cc2)c1=O	79.7
NC(=O)CC1CC2(CCNCC2)c2cc(F)ccc21 (stereo not drawn)	148.0
Cc1ccc2c(c1)CNc1ccccc1O2	3.2
O=C(Nc1cccc(F)c1)N1CC2CNC(C2)C1 (stereo not drawn)	-49.0
COc1cccc([C@@H]2CN(c3ccncc3)[C@@H]3C4CCN(CC4)[C@@H]32)c1	1.7
Cn1ccnc1C1(O)CC2CCC(C1)N2CC(=O)Nc1nccs1 (stereo not drawn)	-9.1
O=C1C=C2C=C[C@@H]3C[C@@]2(O1)[C@H]1CCCCN31	-10.3&-67.3
COc1ccccc1CNC(=O)c1cc2cccnc2n(Cc2ccc(F)cc2)c1=O	92.4
O=C(O)c1ccc2[nH]cc(CCCCN3CC=C(c4ccccc4)CC3)c2c1	7.6&7.5
CCN(CC)CCN1CCO[C@@H]2[C@@H](OCc3cccnc3)CC[C@H]21	-61.0
OC[C@H]1Nc2ccc(C#Cc3cccnc3)cc2[C@H]2NCC[C@H]21	17.3
COc1cccc(Oc2c(C)oc3cc(OC(=O)N(C)C)ccc3c2=O)c1	1.1
CCn1ccnc1CN1CCCC(C(=O)c2cc(F)ccc2OC)C1 (stereo not drawn)	-14.5
Cc1ccc2c(n1)N(C)CCN(S(=O)(=O)c1cn(C)cn1)C2	3.8
O=C(O)CN1C2COCC1CC(Oc1cccnc1)C2 (stereo not drawn)	2.0
Fc1ccccc1CO[C@@H]1C[C@@H]2CN(c3ncccn3)CCN2C1	207.6
CC(C)N(C)Cc1cncc2c1CCN(c1ccccn1)C2	-2.9
c1ccc(Cn2ccnc2)cc1	-2.5
C/C(=C\C(N)C(=O)O)CP(=O)(O)O (stereo not drawn)	8.2
C=CCN1CCN(C)C2(CCN(Cc3ccncc3)CC2)C1=O	-3.9
COCCN1C[C@H]2[C@@H](OC)CCN(C(=O)COc3ccccc3)[C@H]2C1	-2.1
CC(=O)NCCc1c[nH]c2ccccc12	7.1&18.6&8.8
CNC(=O)C1CC2CN(Cc3ccncc3)CC1O2 (stereo not drawn)	-23.0
Cn1cc(N2CC3(CCN(Cc4ccncc4)C3)CC2=O)cn1 (stereo not drawn)	7.7
CC(C)c1ccc(NC(=O)c2cc3cccnc3n(Cc3ccc(Cl)cc3)c2=O)cc1	70.6
O=C(O)CCC(CP(=O)(O)O)C(=O)O (stereo not drawn)	31.8
O=C(Nc1ccc(Oc2ccccc2)cc1)c1cc2cccnc2n(Cc2ccccc2)c1=O	-56.5
CC1COC2(CCCN(Cc3csnn3)C2)C1 (stereo not drawn)	4.3
CC1Oc2ccc(S(=O)(=O)N3CC4CC(C3)c3cccc(=O)n3C4)cc2NC1=O (stereo not drawn)	34.7
COc1cccc(CNC(=O)c2cc3cccnc3n(Cc3ccccc3F)c2=O)c1	14.1
C[N+]1(C)CCN(c2ccccc2)CC1	15.9
CN1C(=O)C2(CCN(Cc3cnn(C)c3)CC2)c2ccccc21	78.1
O=C1Nc2ccccc2NC12CCNCC2	i
O=C(Nc1ccccc1F)c1cc2cccnc2n(Cc2ccccc2F)c1=O	-30.0
CN(C)c1ncc2c(n1)C1(CCN(Cc3cccnc3)C1)COC2 (stereo not drawn)	2.8
c1cncc(C2=NCCC2)c1	11.0
O=C(Nc1ccc(F)cc1F)c1c(O)c2cccnc2n(Cc2ccccc2)c1=O	-21.8
Cc1nc2c(c(N3C[C@@H]4C[C@@H](C3)c3cccc(=O)n3C4)n1)CNC2	-19.8
COc1cc2c3cc1Oc1cc(ccc1O)C[C@@H]1c4c(cc(OC)c(O)c4Oc4ccc(cc4)C[C@H]3N(C)CC2)CCN1C	-94.2*
C=CCN1CC[C@@H]2[C@@H]1CCN2c1ncc(F)cn1	2.8
O=[N+]([O-])c1ncc[nH]1	-19.6
C[C@@H]1O[C@@H](O[C@@H]2C=C3CCC4C(CC[C@]5(C)[C@@H](c6ccc(=O)oc6)CC[C@]45O)[C@@]3(C)CC2)C(O)C(O)[C@H]1O (stereo partly drawn)	-79.7*
CN1CC[C@@H]2CN3CCc4cccc(c43)[C@@H]2C1	4.4
C/C(=C\c1csc(C)n1)[C@H]1C[C@@H]2O[C@]2(C)CCC[C@H](C)[C@H](O)[C@@H](C)C(=O)C(C)(C)[C@H](O)CC(=O)O1	-74.9*
O=C(Nc1cccnc1)c1cc2cccnc2n(Cc2ccccc2F)c1=O	84.2
Cc1cccc(NC(=O)c2c(O)c3cccnc3n(Cc3ccccc3)c2=O)c1	139.3
CC(C)CN1CC[C@H]2[C@@H]1CCN2C(=O)Cc1ccsc1	12.3

Next section.
canonical_smiles	Tgondii IFNg
CC(C)N(C)CC1CCC2(COCCN(Cc3cccnc3)C2)O1 (stereo not drawn)	21.7
CCOC(C(=O)OCCCN1CCCCCC1)(c1ccccc1)c1ccccc1	-79.7*
O=C(NCc1cccs1)c1cc2cccnc2n(Cc2ccccc2F)c1=O	11.2
CN(C(=O)Cc1ccc(Cl)c(Cl)c1)C(CN1CCCC1)c1cccc(OCC(=O)O)c1 (stereo not drawn)	5.2
CC(CCc1ccccc1)NC(=O)c1cc2cccnc2n(Cc2ccccc2)c1=O (stereo not drawn)	-28.9
C=CCC(O)(CC=C)C(N)Cc1ccccc1 (stereo not drawn)	58.6
CN(C)C(CN)c1cccc(C(F)(F)F)c1 (stereo not drawn)	-63.7
CN1CC[C@@]2(C[C@@H](NS(=O)(=O)C3CC3)CCO2)C1	-56.4
O=C(O)CN1CCCC2(CC(c3ncc(F)cn3)CO2)C1 (stereo not drawn)	65.2
